HNF4A DNA FP – change in binding of human HNF4A to DNA, primary screen, biochemical, fluorescence polarization, FITC-DNA; AID 1224865, 2016; hit rate 0.3% among 360,000; Hepatocyte nuclear factor 4-alpha (Homo sapiens), P41235; activity change, % at 10 µM; 1 h; in the data active = activity change above about 30%, passing the limit was not always enough;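 note: controls were the assay level and a saturating level of protein; the project sought stronger binding though the title names inhibitors; some compounds called inactive have numbers as strong as hits; positive values seem to mean higher polarization but the record does not say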
Target sequence (P41235 whole entry, looked up): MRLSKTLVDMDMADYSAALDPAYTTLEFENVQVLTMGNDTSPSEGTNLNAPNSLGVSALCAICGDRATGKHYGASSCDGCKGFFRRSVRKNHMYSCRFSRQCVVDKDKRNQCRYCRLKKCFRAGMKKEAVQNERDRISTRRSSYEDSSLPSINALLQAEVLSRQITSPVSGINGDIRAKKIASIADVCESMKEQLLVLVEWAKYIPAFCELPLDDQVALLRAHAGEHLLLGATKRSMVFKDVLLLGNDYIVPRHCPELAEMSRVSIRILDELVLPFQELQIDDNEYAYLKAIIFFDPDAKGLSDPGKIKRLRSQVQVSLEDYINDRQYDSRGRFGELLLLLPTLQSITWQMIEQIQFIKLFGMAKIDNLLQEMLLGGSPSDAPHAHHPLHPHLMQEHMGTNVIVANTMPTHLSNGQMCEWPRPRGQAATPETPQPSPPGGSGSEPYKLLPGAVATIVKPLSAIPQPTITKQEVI
Vif A3G – inhibitors of Vif binding to APOBEC3G peptide, primary screen, biochemical, TR-FRET, GST-Vif 1-94, biotin-A3G peptide, dose response retest (AID 1117319); one-dose inhibition, %; IC50 in µM for titrated hits; hit rate 0.57% among 260,000; Virion infectivity factor (Human immunodeficiency virus type 1 group M subtype B (isolate …; TR-FRET GST-Vif / biotin-A3G peptide binding; higher % means a stronger effect; test concentration not given here; strong numbers were not always called active;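 active = above the screen mean plus three standard deviations and confirmed in dose response; inconclusive = results disagree or hit not tested in dose response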;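 note: Vif residues 1-94 fused to GST binding biotinylated APOBEC3G peptide 110-148; 0% = full assay without inhibitor and 100% = GST in place of GST-Vif; retest series ran down from 100 µM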
LANA-H2B inh – blockers of LANA interaction with H2A/H2B – biochemical, FP readout, HTS, primary screen; cell-free LANA-H2A/H2B peptide, fluorescence polarization; Protein LANA1 (Human herpesvirus 8 type P (isolate GK18)), Q9QR71; inhibition, % (concentration not given with the values); hit rate 0.6% among 320,000; in the data active = inhibition mostly above about 10%, no sharp cut-off; inactive = mostly below about 6.7%;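 note: stock transfer was 7.5 nL into about 10 µL; 0% = median of vehicle wells and 100% = median of positive control wells; one replicate is shown; the record names a cut of 25% in any replicate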
UCH37 inh – inhibitors of human UCH37 deubiquitinase, primary screen, biochemical, Ub-AMC cleavage, fluorescence; inhibition, % (no concentration beside the values); hit rate 0.33% among 330,000; purified proteasome/UCH37; Ubiquitin carboxyl-terminal hydrolase isozyme L5 (Homo sapiens), Q9Y5K5;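 active = mean of two replicates above 20%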;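 note: 0% = compound-free wells with enzyme and 100% = wells lacking proteasome; stock transfer was 100 nL into about 20 µL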
Target sequence (Q9Y5K5 whole entry, looked up): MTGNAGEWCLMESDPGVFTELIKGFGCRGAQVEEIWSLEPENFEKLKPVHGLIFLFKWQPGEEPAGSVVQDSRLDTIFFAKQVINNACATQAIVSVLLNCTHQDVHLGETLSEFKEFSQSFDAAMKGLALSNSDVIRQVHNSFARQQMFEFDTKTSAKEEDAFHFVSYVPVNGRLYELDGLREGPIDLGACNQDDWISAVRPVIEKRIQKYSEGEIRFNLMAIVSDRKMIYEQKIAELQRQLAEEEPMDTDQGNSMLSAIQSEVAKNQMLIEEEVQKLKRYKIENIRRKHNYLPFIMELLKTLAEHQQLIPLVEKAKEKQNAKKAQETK
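assay system = human UCH37 enzyme supplied as purified proteasome complex | amount = proteasome at 0.15 nM in the dispensed enzyme solution | schedule = 30 min compound-proteasome preincubation then 25 min substrate reaction, room temperature | measured by = fluorescence, ex 355 nm, em 460 nm | benchmarks = no-proteasome wells (full inhibition) and compound-free wells (no inhibition)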
Beta2AR agonist – beta2AR agonists driving receptor internalization, primary screen, cell-based, FAP fluorogen, flow cytometry | Am2.2-beta2AR cells; reference of the scale not given here | response, % (concentration not given with the values) | hit rate 0.43% among 340,000;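 active = response above a set limit, near 3 SD of response in nonfluorescent compounds, cut at about 42% in these data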;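 note: stock transfer was 100 nL into about 11 µL; a reference agonist was the positive control; negative values mostly stem from fluorescent compounds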
Ecoli growth – E. coli growth inhibition, primary screen, OD600. Escherichia coli growth, 23 h; stronger effect = lower value. OD600 absorbance (test concentration not listed). hit rate 0.21% among 330,000. AID 1053175, 2014;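 active = OD600 absorbance below the run mean of sample wells minus 3.6 SD, in any replicate, cut at about 0.56 in these data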;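 note: stock transfer was 300 nL into about 60 µL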
Bfl-1 A1 inh – caspase 3/7 activation in MEF A1-2A-BIM cells, primary screen, A1 inhibitor project, cell-based, luminescence, HTS. Caspase-Glo 3/7 luminescence, 3 h; percent of clofoctol response, vehicle zero. hit rate 0.066% among 330,000. caspase activation, % (no concentration beside the values);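 active = over half of replicate activation scores above 10%, or exactly half above 10 with the replicate mean above 10; inconclusive = replicate mean below 10 yet half the replicates above 10; inactive = over half of replicates below 10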;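 note: wells of about 30 µL received 50 nL stock; many hits fall short of the cut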
The depositor's hits bear a star; ? = inconclusive; · = not tested or not shown; & = joins results of further samples.

Molecule,Ecoli growth,Bfl-1 A1 inh,Beta2AR agonist,HNF4A DNA FP,Vif A3G,UCH37 inh,LANA-H2B inh
O=C(c1ccccc1F)N1CCN(Cc2cccc(Cl)c2)CC1,0.693,0.1,2.3,-0.1,28.4%,3.0,-2.1
O=C(Nc1nc2c(Cl)ccc(Cl)c2s1)C1CC1,0.716,-0.3,-9.6,11.5,·,0.7,0.2
S=c1[nH]nc(COc2ccccc2)n1/N=C/C=C/c1ccco1,·,-0.1,0.3,-0.6,-4.4%,·,2.2
CN(C)c1ccc(C(CNS(=O)(=O)c2cccc([N+](=O)[O-])c2)N2CCOCC2)cc1 (stereo not drawn),0.686,?,1.1,0.8,-0.6%,7.7,2.0
Oc1ccc(/C=N/NC(=S)NC2CC3CCC2C3)cc1 (stereo not drawn),·,0.3,-12.2,2.3,20.4%,·,-0.2
CC(=O)N1CCOc2ccc(S(=O)(=O)N3CCN(c4cc(C)ccc4C)CC3)cc21,0.674,-0.4,4.5,-5.2,·,0.2,-4.4
CCn1c(CC(=O)Nc2ccccc2C)nnc1SCC(=O)Nc1nncs1,0.617,-1.0,6.0,-0.2,·,0.4,1.3
O=S(=O)(Nc1cc(C(F)(F)F)ccc1N1CCOCC1)c1ccccc1,0.647,0.6,4.1,-2.2,2.0%,-0.6,1.4
OCCCN1CCN(CCCOc2ccccc2-c2ccccc2)CC1,0.691,-0.4,0.6,1.0,·,3.7,3.4
c1ccc(OCc2nnnn2-c2ccccc2)cc1,0.691,0.1,-3.0,-0.8,8.3%,1.0,2.3
O=C(NC1CCc2ccccc21)c1cc(COc2ccc(F)cc2Cl)on1 (stereo not drawn),0.651,0.3,11.2,-4.5,11.3%,2.4,3.7
O=C(c1ccc(F)cc1)N(Cc1ccccc1)C1CCS(=O)(=O)C1 (stereo not drawn),0.711,-0.2,-6.1,1.5,16.1%,3.7,2.0
O=C1CCCC2=C1C(c1ccco1)Nc1ccc3ccccc3c12 (stereo not drawn),·,-2.0,4.2,-32.7,4.21µM*,·,-3.9
Cc1noc(C)c1C(=O)Nc1ccc(-c2nnc3n2CCCCC3)cc1,0.633,0.3,6.8,0.7,-12.0%,3.9,-7.0
COC(=O)c1ccc(C2C(C#N)=C(N)Oc3cc(C)n(C)c(=O)c32)cc1 (stereo not drawn),0.674,0.9,-1.3,5.7,?,1.5,-0.3
O=C(CN1CCN(c2ccccc2)CC1)NC(=O)NCc1ccccc1,0.698,-0.8,-7.0,1.8,8.0%,0.9,1.4
CCc1ccccc1N1CC(C(=O)N2Cc3ccccc3CC2C(N)=O)CC1=O (stereo not drawn),0.648,-0.3,1.1,2.5,·,1.0,2.5
Clc1cc(Sc2ccc(Br)cc2)nnc1-c1ccccc1,0.73,0.0,0.3,4.4,2.9%,1.4,-1.1
COc1ccc(-c2cc(C(=O)Nc3ccccc3)on2)cc1,0.686,-7.6,-2.2,0.2,·,0.1,-2.0
CCOC(=O)C1CCCCN1C(=O)c1oc2c(Cl)cc(C)cc2c1C (stereo not drawn),0.726,0.0,15.3,12.2,-5.9%,3.8,-6.7
O=C(CN1C(=O)NC(Cc2c[nH]c3ccccc23)C1=O)Nc1ccccc1Br (stereo not drawn),0.69,-0.3,-4.8,0.5,-10.9%,0.6,-0.6
Cc1cc2nc(-c3ccccc3O)[nH]c2cc1C,0.691,·,2.8,6.8,1.1%,-210.6,·
O=C(NC(Cc1ccccc1)c1ccc2c(c1)OCCCO2)c1ccc(F)cc1 (stereo not drawn),0.733,0.0,1.1,7.2,-8.4%,4.8,0.0
CC(C)(C)NC(=S)NCCc1ccccc1,0.662,1.4,-1.1,2.1,1.4%,-0.2,-2.9

Complete entries, quoted from the list. Screens in order: Ecoli growth	Bfl-1 A1 inh	Beta2AR agonist	HNF4A DNA FP	Vif A3G	UCH37 inh	LANA-H2B inh
O=C(Nc1nc2c(Cl)ccc(Cl)c2s1)C1CC1 as listed: 0.716	-0.3	-9.6	11.5	·	0.7	0.2
CCOC(=O)C1CCCCN1C(=O)c1oc2c(Cl)cc(C)cc2c1C (stereo not drawn) as listed: 0.726	0.0	15.3	12.2	-5.9%	3.8	-6.7

Next section:
Molecule,Ecoli growth,Bfl-1 A1 inh,Beta2AR agonist,HNF4A DNA FP,Vif A3G,UCH37 inh,LANA-H2B inh
CCOC(=O)/C=c1\s/c(=C(\C#N)C(=O)NC)n(-c2ccccc2)c1=O,·,0.8,10.6,0.5,-0.6%,·,1.6
CCCN(C(=O)c1ccc(S(=O)(=O)N2CCCC2)cc1)C1CCS(=O)(=O)C1 (stereo not drawn),0.667,0.5,-2.5,-3.6,·,1.8,1.0
CCOc1cc(-c2c(C#N)c(N)nc3c2CCc2ccccc2-3)ccc1O,0.682,0.2,0.9,1.1,·,-129.1,-1.6
O=C(CSc1nnc(-c2ccco2)n1Cc1ccccc1)c1ccc(F)cc1,0.65,-1.1,-18.5,-1.2,2.8%,0.7,-1.8
COc1ccc(OCc2nnc(SCC(=O)N3c4ccccc4Sc4ccc(Cl)cc43)o2)cc1,0.714,1.0,9.5,-1.8,30.0%,2.9,-0.4
COc1cccc(CC(NC(C)=O)C(=O)NC2CCN(S(=O)(=O)c3ccc4ccccc4c3)CC2)c1 (stereo not drawn),0.691,1.2,-1.4,0.3,66.8%,3.5,1.1
CCOC(=O)c1c(O)cc(C)[nH]c1=O,0.691,0.2,-1.9,-0.8,2.0%&2.0%,4.3,3.7
CC1Cc2ccccc2N1C(=O)CCn1cccn1 (stereo not drawn),0.676,0.1,12.9,-1.8,·,0.7,-2.1
COc1ccc(C(=O)N(C)C2(C)CCS(=O)(=O)C2)cc1OC (stereo not drawn),0.68,0.5,-10.9,1.4,-1.1%,0.4,-3.9
Cc1oc(-c2ccc(Cl)cc2)nc1CS(=O)CC(=O)NCc1cccs1 (stereo not drawn),0.702,-0.1,6.1,-2.8,-4.2%,0.8,-9.8
O=C(Nc1c(F)cc(F)cc1Br)c1cc(-c2ccccc2)on1,0.681,0.2,-5.1,0.0,·,2.7,-4.9
C(=C\c1nc(-c2ccncc2)no1)/c1ccccc1,0.654,-5.3,-6.6,-0.3,-6.6%,-1.8,3.3
O=C1ON=C(c2ccccc2)/C1=C/c1ccc(O)cc1,0.682,-0.1,46.6*,-3.2,·,5.2,-1.2
CC(C)CN1CCNC(=O)C1CC(=O)NCc1cnn(-c2cccc(F)c2)c1 (stereo not drawn),0.683,-0.4,3.4,1.9,?,-14.2,0.6
C=CCN(CC=C)S(=O)(=O)c1ccc(F)cc1,0.625,-1.1,8.4,-2.0,-0.5%,0.6,-2.2
NS(=O)(=O)c1ccc(CCNC(=O)COC(=O)c2cc([N+](=O)[O-])ccc2N2CCOCC2)cc1,0.621,-0.1,-5.0,2.5,0.8%,7.5,-1.3
C/C(=N\NC(=O)COc1ccccc1-c1ccccc1)c1cccnc1,·,-0.7,-5.3,-1.9,-1.2%,·,-5.1
CCCc1nnc(NC(=O)CCS(=O)(=O)c2ccccc2)s1,0.652,-0.5,-1.0,0.1,9.3%,-0.8,0.6
COc1cccc(CN(C)C(=O)CNC(=O)c2cccs2)c1OC,0.674,1.1,-9.3,-1.2,6.9%,2.3,-10.4
CC(C)c1ccc(NC(=O)CN2CCN(C(=O)C3CCCO3)CC2)cc1 (stereo not drawn),0.681,-1.1,8.4,0.5,·,2.1,-7.0
Oc1ccc2ccccc2c1CNc1ccccc1,0.631,·,-1.2,11.1,-4.8%,1.0,·
O=C(COc1ccccc1)Nc1cccc(-c2ccc(N3CCOCC3)nn2)c1,0.536,-0.5,-1.6,-0.3,-2.6%,-1.3,-1.6
O=[N+]([O-])c1ccccc1/C=N/OCc1ccccc1,·,-3.7,-3.8,-1.4,·,·,-2.1
COc1nc(NC(C)=O)nc(C)c1Br,0.626,0.1,·,·,9.4%,3.3,-9.8
O=C(CN1C(=O)NC2(CCCC2)C1=O)NCc1ccccc1,0.714,-0.5,1.0,6.6,·,4.6,-0.9
CCOc1ccccc1C(=O)NC(C(=O)N(C)Cc1ccc2c(c1)OCO2)C(C)C (stereo not drawn),0.693,·,3.4,3.8,-2.4%,4.6,·
COc1ccc2oc(C(=O)OCC(=O)N3CCN(c4ccccc4)CC3)c(C)c2c1,0.643,0.4,-1.6,0.3,4.4%,-35.8,1.5
CCOC(=O)c1c[nH]c(=O)c(Br)c1O,0.697,0.0,-3.8,0.8,-0.6%,-2.3,4.2
CC1CCCCN1C(=O)CSc1nnc(-c2ccco2)n1C (stereo not drawn),0.647,0.3,-7.9,5.1,·,1.4,1.8
O=C(CCNc1cccc(C(F)(F)F)c1)c1ccco1,0.694,-0.1,-7.1,1.8,-5.7%,7.4,4.8
CSc1ccc(CC(=O)N2CCC(n3nccc3NC(=O)C3CC3)CC2)cc1,0.703,-0.1,6.0,0.4,-0.6%,-1.2,-0.5
CN1C(=O)N(CC(=O)N2CCN(S(=O)(=O)Cc3ccccc3)CC2)C(=O)C12CCCCC2,0.656,·,2.1,1.7,2.3%,2.0,·
O=C(CSc1nncn1-c1ccccc1)NC1CCCCC1,0.674,-1.1,-18.1,2.8,3.9%,0.3,2.5
O=C(c1ccco1)N1CCN(C(=O)C2CC(c3ccc(F)cc3)=NO2)CC1 (stereo not drawn),0.678,0.9,2.2,1.9,-3.4%&6.2%,3.3,0.7
Cc1nc2nc(NC(=O)c3ccco3)nn2c(C)c1Cl,0.728,-1.1,-13.9,3.1,-4.9%,4.1,4.3
O=S(=O)(c1ccc(-c2csc(=Nc3ccccc3)n2CCCN2CCOCC2)cc1)N1CCOCC1,0.708,-0.5,-3.9,-1.9,-12.8%,-1.5,0.7
C/C(=N\NC(=O)c1c(Cl)cnn1C)c1cccc(NC(=O)COc2ccccc2)c1,·,-2.4,2.5,0.5,18.6%,·,-4.9
CC(C)Cc1nnc(NC(=O)CCS(=O)(=O)c2ccc(Cl)cc2)s1,0.714,1.1,-6.9,4.5,4.9%,1.2,-3.0

Source: PubChem
